A1 inh: inhibitors of the anti-apoptotic protein A1, read as caspase activation | MEF A1-2A-BIM cells, Caspase-Glo 3/7 luminescence, 3 h; percent of clofoctol response, vehicle zero | AID 2462 | actives 0.066% (n = 330,000) | caspase activation, % (concentration not given with the values);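 active = over half of replicate activation scores above 10%, or exactly half above 10 with the replicate mean above 10; inconclusive = replicate mean below 10 yet half the replicates above 10; inactive = over half of replicates below 10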;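 note: wells of about 30 µL received 50 nL stock; many hits fall short of the cut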
LANA-H2A inh: blocks KSHV LANA binding to histone H2A/H2B. Q9QR71. cell-free LANA-H2A/H2B peptide, fluorescence polarization. inhibition, % (no concentration beside the values). actives 0.6% (n = 320,000). AID 2629; in the data active = inhibition mostly above about 10%, no sharp cut-off; inactive = mostly below about 6.7%;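 note: stock transfer was 7.5 nL into about 10 µL; 0% = median of vehicle wells and 100% = median of positive control wells; one replicate is shown; the record names a cut of 25% in any replicate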
Target sequence (Q9QR71 whole entry, looked up): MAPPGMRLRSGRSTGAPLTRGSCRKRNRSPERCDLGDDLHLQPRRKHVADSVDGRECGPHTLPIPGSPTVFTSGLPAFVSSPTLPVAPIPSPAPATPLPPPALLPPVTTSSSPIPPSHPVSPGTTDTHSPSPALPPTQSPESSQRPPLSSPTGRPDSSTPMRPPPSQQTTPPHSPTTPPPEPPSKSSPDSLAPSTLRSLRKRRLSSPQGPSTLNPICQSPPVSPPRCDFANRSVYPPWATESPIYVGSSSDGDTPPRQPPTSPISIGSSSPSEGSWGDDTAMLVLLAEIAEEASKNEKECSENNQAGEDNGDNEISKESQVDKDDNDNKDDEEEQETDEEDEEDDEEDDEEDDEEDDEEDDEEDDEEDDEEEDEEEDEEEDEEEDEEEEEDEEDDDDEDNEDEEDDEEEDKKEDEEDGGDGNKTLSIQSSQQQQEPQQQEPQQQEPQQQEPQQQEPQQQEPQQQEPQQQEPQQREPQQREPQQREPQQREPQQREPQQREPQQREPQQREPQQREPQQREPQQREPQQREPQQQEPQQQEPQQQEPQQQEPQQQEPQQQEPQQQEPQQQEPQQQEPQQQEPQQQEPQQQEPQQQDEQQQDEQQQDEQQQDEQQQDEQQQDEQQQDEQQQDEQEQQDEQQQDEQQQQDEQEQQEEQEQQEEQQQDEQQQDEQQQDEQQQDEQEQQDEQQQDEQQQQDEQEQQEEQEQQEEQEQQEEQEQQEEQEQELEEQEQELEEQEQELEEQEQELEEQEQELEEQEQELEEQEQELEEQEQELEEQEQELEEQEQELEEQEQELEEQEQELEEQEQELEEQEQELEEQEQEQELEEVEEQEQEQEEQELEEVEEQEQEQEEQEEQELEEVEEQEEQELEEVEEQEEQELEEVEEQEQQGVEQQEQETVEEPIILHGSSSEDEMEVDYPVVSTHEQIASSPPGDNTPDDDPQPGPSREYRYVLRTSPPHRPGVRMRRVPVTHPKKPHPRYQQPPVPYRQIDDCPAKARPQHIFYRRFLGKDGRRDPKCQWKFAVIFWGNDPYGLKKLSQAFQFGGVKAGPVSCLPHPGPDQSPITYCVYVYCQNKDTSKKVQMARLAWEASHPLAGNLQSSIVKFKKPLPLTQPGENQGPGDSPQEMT
Beta cell apopt: blocks beta cell apoptosis; INS-1E cytokine-induced death, ATP luminescence, 48 h; percent of positive-control rescue, neutral wells zero; protection from apoptosis, % (no concentration beside the values); actives 0.8% (n = 300,000); AID 435005;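 active = all replicates at 75% or more, or half of them and the mean; inconclusive = half reach 75% but not the mean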;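 note: 0% = cytokine-treated negative control wells and 100% = positive control rescue; higher means more ATP so stronger rescue from cytokine killing; wells of about 40 µL received 100 nL stock; the first replicate is given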
Vif A3G: inhibitors of Vif binding to APOBEC3G peptide, primary screen, biochemical, TR-FRET, GST-Vif 1-94, biotin-A3G peptide, dose response retest (AID 1117319). inhibition, %, or IC50 in µM where a hit was titrated. actives 0.57% (n = 260,000). TR-FRET GST-Vif / biotin-A3G peptide binding; higher % means a stronger effect; test concentration not given here; strong numbers were not always called active;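 active = above the screen mean plus three standard deviations and confirmed in dose response; inconclusive = results disagree or hit not tested in dose response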;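 note: Vif residues 1-94 fused to GST binding biotinylated APOBEC3G peptide 110-148; 0% = full assay without inhibitor and 100% = GST in place of GST-Vif; retest series ran down from 100 µM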
Calb FLC: affects C. albicans growth with fluconazole | C. albicans CaCi-2 (fluconazole-resistant clinical isolate) + fluconazole, Alamar Blue growth, 48 h | growth inhibition, % (test concentration not listed) | actives 0.57% (n = 300,000) | AID 1979;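 active = most replicates above 75%; inconclusive = exactly half above 75%; inactive = most below 75%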;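 note: all wells also contain fluconazole at 8 µg/ml as a sub-toxic cotreatment; 0% = median of DMSO wells and 100% = median of geldanamycin control wells; wells of about 8 µL received 7.5 nL stock; the first replicate is given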
T cruzi repl: T. cruzi replication inhibition. T. cruzi beta-gal in NIH3T3, luminescence, 90 h. inhibition, % (concentration not given with the values). actives 1.4% (n = 300,000);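 active = mean inhibition across valid replicates above about 55%, limit read from the data; inconclusive = mean below that limit but half or more replicates reach it; inactive = mean below it, under half of replicates reach it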;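 note: signal also drops with host cell toxicity which is not excluded here; 0% = plate median of DMSO wells and 100% = zero luminescence signal; higher percent means less beta-gal luminescence so fewer parasites; stock transfer was 50 nL into about 50 µL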
RanGTP-Imp inh: inhibitors of RanGTP-importin-beta interaction, primary screen, biochemical, FRET, CFP-Ran, YFP-importin-beta, homogeneous | cell-free CFP-Ran/YFP-importin-beta FRET ratio | inhibition, % (test concentration not listed) | actives 1.1% (n = 300,000) | AID 2216;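 active = most replicates above 15%; inconclusive = exactly half above 15%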;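 note: 0% = DMSO wells and 100% = Ran loaded with GDP instead of GTP; wells of about 40 µL received 100 nL stock; the first replicate is given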
MLL AF4-AF9 inh: inhibitors of human MLL-AF4/AF9 interaction; P42568; AlphaScreen, biotin-AF4 peptide binding to FLAG-AF9; inhibition, % at 10 µM; actives 0.47% (n = 350,000);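 active = every replicate reaching a set inhibition limit, whatever the replicate mean, cut at about 25% in these data; inconclusive = mean inhibition reaches that limit but some replicates miss it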;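 note: 0% = plate neutral control median and 100% = total signal loss; the record names both 10 and 1 µM as test concentration; the first replicate is given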
Numbers without * were called inactive; ? = inconclusive; nt = no result given; + = active, no number.

SMILES	A1 inh	LANA-H2A inh	Beta cell apopt	Vif A3G	Calb FLC	T cruzi repl	RanGTP-Imp inh	MLL AF4-AF9 inh
CSc1nnc(-c2ccccc2)c(=O)[nH]1	0.7	-2.8	2	3%	7	-2	2.7	nt
Cc1cc(C)cc(NC(=O)CN2CCN(C(=O)C3CCCO3)CC2)c1 (stereo not given)	-0.1	2.0	-2	6%	-3	-4	0.3	-0.4
Cc1ccc2nc(-c3cccnc3)c(NC3CCCC3)n2c1	0.6	-7.4	-6	15%	1	-4	8.6	0.4
CCCCOC(=O)c1cc(Cl)c(O)c(OC)c1	0.7	0.9	-3	10%	59	3	-1.4	-0.6
CCOc1cccc(C(=O)NCc2ccccc2)c1	1.6	7.1	0	5%	-15	-19	8.5	-0.6
CC(C)CCNC(=O)CN(C(=O)Cn1nnc(-c2ccc(F)cc2)n1)C1CCCC1	0.2	9.4	-8	7%	-37	-2	?	nt
O=C(NCCNC(=O)c1ccco1)c1ccc(F)cc1	0.2	5.6	-7	?	3	-4	-5.9	-6.1
O=C1c2ccccc2C(=O)N1CC1c2ccccc2CCN1S(=O)(=O)c1ccccc1 (stereo not given)	-0.6	1.4	5	-1%	-4	-2	-2.5	nt
COc1cc(OC)cc(-c2sc3ccc(OC)cc3c2C#CC2(N)CCCCC2)c1	0.7	0.9	7	nt	nt	nt	nt	10
Cc1cccn2cc(CSc3ccccc3N)nc12	-2.9	2.9	16	1%	-2	8	-4.1	nt
C=CCC[C@H](Cc1ccc(F)cc1)C(=O)OC[C@@H](NC(=O)[C@@H](CC=C)CC(=O)N[C@@H](CO)Cc1ccccc1)C(C)(C)C	-0.4	-1.5	26	nt	nt	nt	nt	-8.1
Cc1nccn1-c1ncnc2sc3c(c12)CCCC3	0.0	6.1	-9	25%	-9	-1	1.5	nt
CC1CCCCN1CCCNC(=O)Cn1ncc2c([nH]c3ccccc32)c1=O (stereo not given)	1.1	-0.1	-6	1%	-2	2	1.5	-0.2
Cc1ccc2cc(C)c(N3CCN(c4ccccn4)CC3)nc2c1	0.2	1.0	8	6%	-38	-1	-1.1	nt
O=C(Nc1ccccc1)Nc1sccc1-c1nc2ccccc2s1	-0.6	-5.0	8	nt	-3	6	8.1	-2.0
COc1ccc2c(c1)[nH]c1c(=O)n(Cc3ccccn3)cnc12	0.1	4.1	-3	29%	-13	24	2.1	-1.0
COc1ccc([N+](=O)[O-])cc1NC(=O)CSc1ccccc1	0.3	4.3	-6	0%	3	-15	-4.3	nt
CCC(=O)Oc1ccc(C(=O)Nc2cccc(C(=O)NCC(C)C)c2)cc1	2.2	0.6	1	3%	23	-3	-2.3	-13
Fc1ccc(CNC(=S)Nc2cccc(C(F)(F)F)c2)cc1	-0.2	0.7	3	-3%	7	3	-3.8	nt
C#CCSc1nnnn1-c1cccc(Cl)c1	-0.1	-4.5	0	10%	-16	-21	1.3	-0.3

Random excerpt: 3 entries already listed
SMILES	A1 inh	LANA-H2A inh	Beta cell apopt	Vif A3G	Calb FLC	T cruzi repl	RanGTP-Imp inh	MLL AF4-AF9 inh
Cc1ccc2nc(-c3cccnc3)c(NC3CCCC3)n2c1	0.6	-7.4	-6	15%	1	-4	8.6	0.4
O=C1c2ccccc2C(=O)N1CC1c2ccccc2CCN1S(=O)(=O)c1ccccc1 (stereo not given)	-0.6	1.4	5	-1%	-4	-2	-2.5	nt
C#CCSc1nnnn1-c1cccc(Cl)c1	-0.1	-4.5	0	10%	-16	-21	1.3	-0.3

Further structures
SMILES	A1 inh	LANA-H2A inh	Beta cell apopt	Vif A3G	Calb FLC	T cruzi repl	RanGTP-Imp inh	MLL AF4-AF9 inh
COc1ccc(Cl)cc1Nc1nnc(-c2ccncc2)s1	-7.1	-4.1	nt	-8%	14	-13	-1.4	1.5
CC(C)(C)c1ccc(C(=O)N2CCC(C(=O)NC3CC3)CC2)cc1	0.4	2.8	1	nt	-9	-4	6.1	0.4
FC(F)(F)c1ccccc1NC(=S)N1CCN(c2ccccn2)CC1	-0.7	3.3	16	22%	-10	-12	0.1	-0.3
O=C(Nc1cccc(C(=O)Nc2ccccc2C(=O)O)c1)c1cccc(Cl)c1	0.9	-1.9	-2	nt	-7	-31	-2.0	7.1
COc1ccc(-c2csc(N3CCN(S(=O)(=O)c4ccc5c(c4)NC(=O)CO5)CC3)n2)cc1	-0.4	5.1	18	nt	6	22	1.6	1.2
O=C(c1ccccc1)N(Cc1cccnc1)C1(C(=O)Nc2ccccc2)CCCCC1	-0.2	-2.4	-3	-7%	0	-2	-3.3	nt
Cc1ccc(/C=C/S(=O)(=O)NCCC(=O)NCc2ccccc2F)cc1	-1.0	-4.1	0	-4%	nt	nt	nt	-2.5
Cc1noc(C)c1S(=O)(=O)N(C)C[C@H]1Oc2ccc(NS(=O)(=O)c3ccc(F)cc3)cc2C(=O)N([C@H](C)CO)C[C@@H]1C	0.4	nt	-3	6%	nt	nt	nt	1.1
CC(=O)c1c(C)nn(C(=O)c2cccs2)c1C	-0.5	1.6	2	-3%	-2	-8	2.4	3.5
NC(=O)c1cc([N+](=O)[O-])cc2c1C=Cc1ccccc1O2	0.5	-11	-2	0%	0	46	-0.2	2.5
CC(C)N(C)NC(=S)Nc1ccccc1	0.1	1.9	-2	nt	-14	-12	1.4	nt
Cc1c(Cl)ccc2c1NC(=O)[C@]21[C@@H]2C(=O)N(Cc3ccccc3)C(=O)[C@@H]2[C@@H]2CCCN21	-0.3	-5.2	3	2%	nt	nt	nt	nt
C(=N\Nc1nc2ccccc2[nH]1)/c1cccc2nccnc12	-0.8	1.2	72	1%	2	13	-3.3	5.7
Cc1ccc(N2C(=O)c3ccc(C(=O)Nc4cccnc4)cc3C2=O)c(C)c1	0.5	-1.4	-5	6%	1	-1	1.8	nt
CC(C)c1ccc(/C=N/Nc2cc(N3CCOCC3)nc(N3CCOCC3)n2)cc1	2.1	-1.5	-2	-5%	nt	nt	nt	nt
Cc1cc(C)n(S(=O)(=O)c2cc(Cl)ccc2Cl)n1	-0.5	0.3	-3	10%	-3	-4	1.9	nt
CC(C)N1CC=C2C(C#N)=C(N)C(C#N)(C#N)C(c3ccccc3)C2C1 (stereo not given)	-0.6	+	-1	9%	-3	-14	71*	nt
Cn1c(N)c(C(=O)COC(=O)/C=C/c2ccccc2)c(=O)n(C)c1=O	-0.5	1.3	3	-4%	nt	nt	nt	-0.8
COc1cc2c(cc1OC)CN(CC(=O)Nc1ccccc1C#N)CC2	0.8	2.7	0	3%	37	-14	3.3	nt
CC(C)CN(C(=O)COC(=O)CCc1c[nH]c2ccccc12)C1CCS(=O)(=O)C1 (stereo not given)	-0.1	-0.6	-4	?	4	-6	3.3	nt
C=C(C)C1CC=C(C)/C(=N/NC(=O)COc2cccc(C)c2)C1 (stereo not given)	0.9	-4.4	nt	6%	-23	4	-0.7	nt
COc1ccc(C(C(=O)NC2CCCC2)N(C(=O)c2ccco2)c2ccc(OC)c(OC)c2)cc1 (stereo not given)	0.3	4.0	2	-4%	-12	1	1.5	nt
CN(c1ccccc1)S(=O)(=O)c1ccc2c(c1)OCCO2	-2.0	-0.2	12	nt	nt	nt	nt	0.2
Cc1nn2cc(-c3ccc(Cl)cc3)cnc2c1Br	-6.7	1.3	-2	6%	-29	-18	2.0	-3.3
CCN1CCN(C(=S)NC(=O)/C=C/c2cccs2)CC1	-0.7	1.9	-6	nt	27	-11	-1.5	-1.0
CCc1c(C)c(C#N)c2nc3ccccc3n2c1Nc1c(C)n(C)n(-c2ccccc2)c1=O	1.0	-0.2	9	5%	-6	7	40*	nt
COc1cc(C(=O)NCC(c2cccs2)N2CCc3ccccc32)cc(OC)c1OC (stereo not given)	1.1	-3.3	9	3%	3	13	-1.4	4.0
CSc1nc(-c2ccc(C)cc2)nc(C(Cl)Cl)n1	0.7	0.5	6	-2%	-4	56*	8.6	nt
Cc1c(C)n2c(SCC(=O)N3CCCCCC3)nnc2[nH]c1=O	0.7	6.3	3	4%	6	-3	5.5	0.9
CC(C)C(=O)Nc1sc2c(c1-c1nc3ccccc3[nH]1)CCCC2	0.0	3.7	-2	4%	5	35	1.3	nt
CCCc1cc(=O)oc2c(C)c(OCC(=O)NCc3ccccn3)ccc12	-0.7	-0.6	3	nt	1	2	0.0	1.3
Cc1ccc(NC(=O)CSc2ccc(C(N)=O)cc2[N+](=O)[O-])cc1C	0.0	1.7	2	19%	-3	-7	-3.3	-2.9
CC1(C)NC(=O)N(CC(=O)N2CCN(c3cccc(Cl)c3)CC2)C1=O	0.0	-3.6	0	-1%	nt	nt	nt	nt
CCNC(=S)NNC(=O)c1ccccc1OC(F)F	0.8	5.7	0	-3%	?	-1	-5.2	nt
C=CCNc1ncnc2sc(SC)nc12	-0.6	0.1	1	-15%	24	-6	0.4	-0.1
O=C(OCC(=O)N1CCN(c2ccccc2)CC1)c1cccc([N+](=O)[O-])c1	-0.2	2.7	-2	5%	-3	-16	-0.4	-19
CCCOc1ccc(N/C=C/C(=O)c2cc(OC)c(OC)c(OC)c2)cc1	0.0	-3.0	0	nt	-9	34	-1.3	5.8
O=c1[nH][nH]c(C(F)(F)F)c1/C=N/N1CCOCC1	0.5	-2.0	-4	-7%	-9	-9	-2.3	-1.7
Cc1ccc(-c2cc(C(=O)Nc3nn[nH]n3)c3ccccc3n2)cc1	0.1	-2.7	-4	2%	-15	-14	2.5	nt
CCOCCCNCC(=O)NCC1CCCCC1	0.3	0.6	3	1%	11	5	1.0	-1.6
C=CCSc1nc(C)cc(C(=O)OCC)c1C#N	0.8	3.8	nt	2%	0	-3	0.9	-0.1
CCNc1sc(S(C)(=O)=O)nc1S(=O)(=O)c1ccc(Cl)cc1	1.3	-2.4	0	-1%	3	2	-3.6	-1.0
COc1cc(/C=N/Nc2nc(Nc3ccccc3)nc(N3CCCCC3)n2)ccc1OCC(=O)O	-1.5	-5.9	16	2%	27	26	0.4	nt
CC(C)c1cccc(C(C)C)c1OC(=O)[C@H]1OC(c2ccc(Br)cc2)=C[C@@H]1c1ccc(Br)cc1	-0.7	0.1	16	nt	nt	nt	nt	-1.7
COc1ccc(N(CC(=O)NC2CCCC2)S(=O)(=O)c2ccc(NC(C)=O)cc2)cc1	-0.5	-1.0	-1	nt	5	1	-2.0	-0.7
Cn1c2ccccc2n2c(=O)cc(-c3ccccc3)c(C#N)c12	-0.4	-0.5	0	-12%	13	16	2.0	2.5
CC1=C(C(=O)Nc2ccccc2)C(c2cccnc2)n2ncnc2N1 (stereo not given)	0.6	-2.6	-2	4%	-12	-13	4.3	nt
COc1ccc(OC)c(NC(=O)CCOc2cccc(C)c2)c1	0.4	-1.2	3	nt	-27	14	3.0	3.7
CCCC1CC(C)(c2csc(Nc3ccc(OCC)cc3)n2)OC1=O (stereo not given)	0.5	-4.6	11	32%	-2	52	-2.4	4.2
CCOc1ccccc1C(=O)N1CCN=C1SCc1cccnc1	0.1	3.2	-11	1%	-3	-15	3.2	nt

Screens (PubChem BioAssay)
